Screening data from PubChem.
Hsc70 = small molecules displacing fluorescent ligand from Hsc70 – biochemical, fluorescence polarization, primary screen (AID 568) | Hsc70 fluorescence polarization, probe displacement; higher % means a stronger effect; strong numbers were not always called active | displacement, % at 20 µM; hits with a dose series show IC50 in µM | 83,000 tested, under 10 active;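 active = displacement above 50% without optical interference and an IC50 on retest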;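 note: ATPase domain with a fluorescein-tagged ATP probe; 0% = vehicle and 100% = excess ADP; read after one hour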
WNV protease inh = WNV NS2B-NS3 proteinase inhibition; P06935; WNV NS2B-NS3 protease, fluorogenic substrate Ex360/Em465; stronger effect = lower value; z-score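 (tested at a level between 10 and 100 µM)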; hit rate 0.18% among 65,000;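 active = z-score at -3 or under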;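 note: score is relative to mean and spread of the compound wells of a plate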
Target sequence (P06935 1371-1501 limits assumed): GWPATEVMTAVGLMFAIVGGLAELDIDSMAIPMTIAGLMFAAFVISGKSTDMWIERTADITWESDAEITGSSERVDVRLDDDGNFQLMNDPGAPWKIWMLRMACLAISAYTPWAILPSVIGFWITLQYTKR
Target sequence (P06935 1502-1679 limits assumed): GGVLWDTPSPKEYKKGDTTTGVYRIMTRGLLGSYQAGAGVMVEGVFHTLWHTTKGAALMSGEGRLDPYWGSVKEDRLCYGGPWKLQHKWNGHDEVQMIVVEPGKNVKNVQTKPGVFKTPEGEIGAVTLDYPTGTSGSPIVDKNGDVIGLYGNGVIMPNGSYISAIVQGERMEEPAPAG
MT1-MMP promoter = inhibitors of MT1-MMP promoter transcription, cell-based, luciferase reporter, luminescence (AID 618) | hit rate 0.62% among 87,000 | calls from a first round at 10 µM; hits with a dose series show EC50 in µM | MT1-MMP promoter luciferase reporter cells, luminescence;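 active = over half of the reporter light lost at 10 µM or EC50 under 50 µM; inactive = the rest and hits that failed the dose series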;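 note: actives suppress MT1-MMP promoter-driven transcription so potencies describe inhibitors; HT1080 fibrosarcoma cells; overnight exposure; toxic or luciferase-blocking compounds were not removed from the actives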
* = called active by the depositor; i = inactive; x = no result given; + = active, no number.

Under each structure: Hsc70, WNV protease inh, MT1-MMP promoter
O=C1OC2(CCCCC2)OC(=O)C1=CNc1ccc2c(c1)OCO2
 : 6.0%, 1.9, i
CCn1c(C)cc(=S)c2ccccc21
 : 1.9%, 0.4, i
Oc1c(CN2CCN(c3ccc(F)cc3)CC2)cc(Cl)c2cccnc12
 : 2.4%, x, i
CN(C)C(=O)c1ccc(NC(=O)c2cncc(Br)c2)cc1
 : -5.6%, 0.33, i
Cc1ccc(C2CC(c3ccc(Cl)cc3)=NNC2=O)cc1 (stereo not given)
 : 5.4%, x, i
Cc1ccc(SCc2[nH]nc3c2C2(C(=O)N(C)c4ccccc42)C(C#N)=C(N)O3)cc1 (stereo not given)
 : -2.0%, -1.1, i
COCCNC(=O)C(c1cccs1)N(Cc1cccs1)C(=O)Cn1nnc2ccccc21 (stereo not given)
 : 2.7%, x, i
CCOC(=O)c1c(O)c2c(n(Cc3ccco3)c1=O)CCCC2
 : -2.5%, 2, i
Cc1c(/C=C/C(=O)c2cccs2)cnn1C
 : 0.7%, x, i
Cn1c(=O)[nH]c(=O)c2c1nc1n2CCCN1CCc1ccccc1
 : -6.9%, 1.3, i
COC(=O)c1cnn2c(C(F)(F)F)cc(-c3ccc(F)cc3)nc12
 : 3.2%, 0.03, i
O=C(c1cccc2ccccc12)N1CCN(c2ccccc2F)CC1
 : 5.3%, -1, i
O=C(CSc1nnc(SCC(=O)c2ccco2)s1)c1ccco1
 : 1.2%, 0.08, i
COc1ccc(CNC(=O)C2CSC(=O)C2)cc1 (stereo not given)
 : 3.1%, -1.3, i
CCOC(=O)c1ccc(NC2=CC(=O)C(=O)c3ccccc32)cc1
 : 10%, x, i
COc1ccc(-n2nnc3c(=O)n(CC(=O)N4CCCC4)cnc32)cc1
 : 0.9%, -0.41, i
C/C=C/COC(=O)c1[nH]c2c(c1C)C(=O)CC(c1ccco1)C2 (stereo not given)
 : 0.7%, -1.1, +
CCOc1ccc(OCC)c(S(=O)(=O)NCc2ccccn2)c1
 : 2.2%, x, i
COc1cccc(CNC(=O)C2CCN(S(=O)(=O)c3cccs3)CC2)c1
 : -1.2%, x, i
O=C(O)c1cc(NCc2ccccc2C(F)(F)F)ccc1N1CCOCC1
 : 1.3%, -0.79, i
CCc1ccc(C(=O)COC(=O)CNC(=O)c2ccco2)cc1
 : 0.9%, -0.55, i
CCOC(=O)c1cc2ccc3ccccc3c2s1
 : 3.0%, x, i
O=C(Cc1ccccc1)Nc1nc(=O)c2ccccc2s1
 : 0.5%, x, i
CCSc1n[nH]c(=O)[nH]c1=O
 : 2.2%, 2, i
Cc1ccc2nc(-c3ccc4c(c3)OCCO4)cc(C(=O)O)c2c1
 : 0.9%, -0.19, i
CCOC(=O)c1sc2nc(SCC#N)n(CCCN3CCCC3=O)c(=O)c2c1C
 : 0.3%, 0.49, i
CCCC(=O)NC(C)c1nc2ccccc2n1C(C)C (stereo not given)
 : 3.7%, -0.61, i
CCOC(=O)C1=C(C)NC(=O)C(C(N)=O)C12CCCCC2 (stereo not given)
 : -7.7%, 0.88, i
COCCn1c(C)cc(C2=NNC(=Nc3ccc(F)cc3)SC2)c1C
 : 6.0%, x, i
CCOC(=O)C1CCCN(c2cc(=O)n(-c3ccccc3Cl)c(=O)[nH]2)C1 (stereo not given)
 : -4.1%, -1.1, i
CCOc1ccc(NC(=O)C(C)SC(N)=O)cc1 (stereo not given)
 : -1.7%, -1.3, i
Cc1ccsc1/C=C/c1ccc2cccc(O)c2n1
 : -5.7%, x, i
COc1ccc(S(=O)(=O)Nc2ccc(N(C)C(C)=O)cc2)cc1
 : -4.8%, x, i
Cc1cc(-n2ccnc2)n2c(nc3ccccc32)c1C#N
 : -11%, x, i
O=C(Nc1nccs1)c1ccc(COc2ccccc2Br)o1
 : -2.1%, 0.31, i
Cc1cccc(OCC(=O)OC2CCN(C)CC2)c1
 : 3.7%, x, i
Cc1cc(OCC(F)(F)C(F)(F)C(F)(F)C(F)(F)C(F)(F)C(F)F)nc(N)n1
 : 1.7%, x, i
Cc1nc2nc(-c3cccnc3)[nH]n2c(=O)c1C
 : 2.7%, x, i
CCSCCOC(=O)C1=C(C)NC2=C(C(=O)CCC2)C1c1coc2ccccc2c1=O (stereo not given)
 : 9.0%, 0.15, i
CCCCc1ccc(-c2ccc(Br)cc2)nc1
 : 0.4%, x, i
CC1CC(C)CN(c2nc3c(c(=O)n(C)c(=O)n3C)n2CCSc2nc3ccccc3o2)C1 (stereo not given)
 : 0.2%, 1.3, i
C=CCOc1cccc(C2/C(=C(/O)c3ccc(F)cc3)C(=O)C(=O)N2CCN2CCOCC2)c1 (stereo not given)
 : -2.5%, 1, i
COC(=O)c1ccc(NC(=O)CCN2CCCCC2)cc1
 : 0.0%, -0.52, i
CC(C)(C)C(=O)[C@@H]1[C@@H]2C(=O)N(c3ccc4c(c3)OCCO4)C(=O)[C@@H]2C2c3ccccc3C=CN21 (stereo not given in full)
 : 10%, -0.49, i
COC(=O)C(C)n1cnc2c(nnn2Cc2ccc(Cl)cc2)c1=O (stereo not given)
 : -2.6%, 0.12, i
Cc1ccc(S(=O)(=O)C2(C(=O)Nc3cccc(F)c3)CC2)cc1
 : -1.9%, 1.5, i
COc1ccc(N2CCN(C(=O)CSc3nnc4n3C(C)(C)Cc3ccccc3-4)CC2)cc1
 : -1.9%, 0.24, i
CCOc1ccc(C(=O)N2CCC(C(=O)c3ccc4c(c3)OCCO4)CC2)cc1
 : -7.0%, 0.5, i
CCCCCCNS(=O)(=O)c1ccc(OC)c(OC)c1
 : -3.7%, -0.27, i
CN1CCN(CC#CCC(O)(c2ccccc2)C2CCCC2)CC1 (stereo not given)
 : 1.2%, 0.19, i
CC(=O)c1c(N2CCN(C)CC2)[nH]c(-c2ccccc2)nc1=S
 : 2.7%, x, i
Cc1nnc(N2CCCCC2)c2ccccc12
 : -12%, 0.3, i
CCOCCCNC(=O)C1CCN(S(=O)(=O)c2c(C)noc2/C=C\c2ccc(OC)cc2)CC1
 : -0.7%, 0.64, i
COc1cccc(OCC(O)CN2C(C)CCCC2C)c1 (stereo not given)
 : 2.0%, -0.27, i
COc1cc2c(cc1OC)C(c1cc3cc(OC)c(OC)cc3[nH]c1=O)N(C(=O)C1CC1)CC2 (stereo not given)
 : -0.6%, -0.0049, i
CC(=O)OCC(=O)[C@@]12OC3(CCCC3)O[C@@H]1C[C@H]1[C@@H]3CCC4=CC(=O)C=C[C@]4(C)[C@@]3(F)[C@@H](O)C[C@@]12C
 : -5.7%, 0.002, i
C=CCOc1nc2c(c(=O)n(Cc3ccc(Cl)cc3)c(=O)n2C)n1C
 : 0.2%, 0.72, i
O=c1cc(CO)oc(CN2CCN(c3ccccc3)CC2)c1O
 : 0.8%, -0.35, i
Cc1ccc(S(=O)(=O)NCCC(=O)OCn2nnc3ccccc3c2=O)cc1
 : -0.1%, 0.12, i
Cc1c(Nc2nc3ccccc3nc2N2CCN(c3ccccc3)CC2)c(=O)n(-c2ccccc2)n1C
 : 9.1%, -1, i

Reprinted at random: 2 records from the list, in no set order.
Under each structure: Hsc70, WNV protease inh, MT1-MMP promoter
Cc1nnc(N2CCCCC2)c2ccccc12
 : -12%, 0.3, i
CCCCCCNS(=O)(=O)c1ccc(OC)c(OC)c1
 : -3.7%, -0.27, i

Further entries
Under each structure: Hsc70, WNV protease inh, MT1-MMP promoter
COc1ccccc1-c1noc(-c2ccco2)n1
 : 0.0%, -0.44, i
O=C(NCc1ccc2c(c1)OCO2)c1ccc2c(c1)C(=O)N(CC1CCCO1)C2=O (stereo not given)
 : 8.1%, -0.44, i
CCC(C)(C)n1nnnc1C(c1ccc(N(C)C)cc1)N1CCN(C2CCCCC2)CC1 (stereo not given)
 : 0.9%, 1.8, i
CC(C)N=C(NC#N)SCc1ccccc1
 : 2.6%, x, i
Cc1ccc(S(=O)(=O)N2CCC(C(=O)N[C@@H](C)C(=O)NC3CCCCC3)CC2)cc1
 : 3.6%, -0.87, i
Cc1ccc(C2C(C#N)=C(N)Oc3n[nH]c(-c4cccs4)c32)s1 (stereo not given)
 : -1.6%, -1.1, i
Cc1ccc(Nc2nc(=O)c3cccnc3s2)cc1
 : -0.1%, 2.1, i
O=C(CSc1nc2ccsc2c(=O)n1NC(=O)c1ccccc1)NCc1ccco1
 : 6.6%, -1.5, i
CCN1CCN(C(=O)CN(CCc2ccccc2)S(C)(=O)=O)CC1
 : 1.6%, x, i
COC(=O)c1ccccc1COn1c(=O)c(C)[n+]([O-])c2ccccc21
 : -0.4%, -1.4, i
COc1cc(OC)nc(NC(=O)C(C)C)n1
 : 2.6%, -0.21, i
Cc1ccc(OCC(O)Cn2c(=N)n(Cc3ccccc3)c3ccccc32)cc1 (stereo not given)
 : 7.4%, x, i
CCN(CC)CCN1C(=O)C(O)=C(C(=O)c2cccs2)C1c1ccccn1 (stereo not given)
 : 2.3%, -0.39, i
CCc1nc(SCC(N)=O)c2c(=O)n(C)c(=O)n(C)c2n1
 : 1.9%, 0.18, i
Cc1c(NC(=O)CN2c3cccc4cccc(c34)S2(=O)=O)c(=O)n(-c2ccccc2)n1C
 : 3.0%, -0.1, i
CCCc1cc(=O)n2[nH]c(NCc3cccs3)nc2n1
 : 1.0%, -0.3, i
O=[N+]([O-])c1ccc2cn[nH]c2c1
 : 1.0%, x, i
COc1ccc(-n2c(CCc3ccccc3)nnc2SCC(=O)NCc2ccccc2)cc1
 : 0.6%, x, i
CCC(CC)n1[nH]c(=O)cc1N
 : 2.6%, -0.3, i
Cc1cc(C(=O)Nc2c(C)n(C)n(-c3ccccc3)c2=O)c2ccccc2n1
 : 1.6%, x, i
CC(C)(O)C#Cc1ccc(C(=O)NCc2ccccc2)s1
 : -0.7%, x, i
COc1ccc(C)cc1Cn1c(S(C)(=O)=O)nc2ccccc21
 : -1.9%, 0.22, i
CC1CCN(C(=O)COc2ccccc2F)CC1
 : -2.6%, -0.52, i
O=C(c1ccc(S(=O)(=O)Nc2ccc(F)cc2)cc1)N1CCN(C(=O)c2ccco2)CC1
 : 2.4%, x, i
COc1ccc(C2C3=C(CCCC3=O)Nc3nc4ccccc4n32)c(OC)c1OC (stereo not given)
 : -2.6%, 0.94, i
CCn1ncc(Br)c1C(=O)Nc1sc2c(c1C(=O)OC)CCC2
 : -0.6%, 0.41, i
Nc1nc(SCC(=O)N2CCCc3ccccc32)[nH]c(=O)c1-c1ccccc1
 : 0.5%, -0.08, i
COCCSc1ccccc1C(=O)Nc1nnc(C)s1
 : -2.2%, 0.16, i
CCOc1ccccc1Nc1nc2ccccc2[nH]1
 : -1.7%, -0.02, i
CN(C)C(=O)N1CCCC(C(=O)NCCc2ccccc2)C1 (stereo not given)
 : -1.2%, x, i
Cc1cc(C)nc(N2CCN(c3nnnn3-c3ccccc3)CC2)n1
 : -0.7%, -0.03, i
Cn1nc(C(=O)Nc2sccc2C(N)=O)ccc1=O
 : -1.0%, -0.01, i
Cc1onc(-c2ccccc2)c1C(=O)N1CCC(C)CC1
 : -0.8%, x, i
c1ccc(-c2nnc(SCc3nc4ccccc4[nH]3)n2Cc2ccco2)cc1
 : 0.8%, x, i
Cc1oc(-c2ccc(Cl)cc2)nc1CN1CCCC(C(=O)N2CCN(C(=O)c3ccco3)CC2)C1 (stereo not given)
 : 11%, -1.4, i
CCN(CC)S(=O)(=O)c1cccc(C(=O)Nc2cccc(C)c2)c1
 : 1.5%, x, i
O=C(Oc1cccc2cccnc12)c1ccco1
 : 0.4%, x, i
COc1ccc2nc(NCCO)[nH]c2c1
 : 4.7%, 0.14, i
CSCC[C@H](NC(=O)OC(C)(C)C)c1nnc(SCc2cccc(F)c2)o1
 : -4.0%, -0.65, i
O=C(Nc1ccccc1-c1nnn(CC(=O)N2CCCc3ccccc32)n1)c1ccco1
 : -0.9%, 0.63, i
Cc1ccn(S(=O)(=O)c2ccc(C(C)(C)C)cc2)n1
 : 5.7%, 1, i
COc1ccc(Cl)cc1NC(=O)CSc1nnc(-c2ccncc2)n1CC1CCCO1 (stereo not given)
 : -3.7%, -0.89, i
O=C(NC12CC3CC(CC(C3)C1)C2)c1cncc(O)c1
 : 1.9%, -0.61, i
COCCn1nnnc1C(c1cc2c(C)cc(C)cc2[nH]c1=O)N1CCCCCC1 (stereo not given)
 : -11%, -0.98, i
COc1ccc(CN2CCCC2C(=O)Nc2ccc(OC)c(OC)c2)cc1OC (stereo not given)
 : -2.4%, -0.45, i
NC(=O)C1CCN(C(=O)CCCCCn2c(=O)[nH]c3ccsc3c2=O)CC1
 : 7.7%, -0.81, i
c1cn2cc(-c3ccc4c(c3)OCO4)nc2s1
 : 2.2%, 1.7, i

Reformatted bar-delimited: entries from further up.
compound | Hsc70 | WNV protease inh | MT1-MMP promoter
CC1CC(C)CN(c2nc3c(c(=O)n(C)c(=O)n3C)n2CCSc2nc3ccccc3o2)C1 (stereo not given) | 0.2% | 1.3 | i
O=C(CSc1nnc(SCC(=O)c2ccco2)s1)c1ccco1 | 1.2% | 0.08 | i
CN(C)C(=O)c1ccc(NC(=O)c2cncc(Br)c2)cc1 | -5.6% | 0.33 | i
COc1ccc(C)cc1Cn1c(S(C)(=O)=O)nc2ccccc21 | -1.9% | 0.22 | i
CCOC(=O)c1c(O)c2c(n(Cc3ccco3)c1=O)CCCC2 | -2.5% | 2 | i
CN1CCN(CC#CCC(O)(c2ccccc2)C2CCCC2)CC1 (stereo not given) | 1.2% | 0.19 | i
Cc1ccc2nc(-c3ccc4c(c3)OCCO4)cc(C(=O)O)c2c1 | 0.9% | -0.19 | i

Some of the compounds tested (hit frequency here may not be typical).
